Vaccinia stage – blocks a specific stage of Vaccinia orthopoxvirus infection, primary screen, cell-based, single point; Vaccinia-infected cells, mCherry/Venus stage reporter fluorescence; stronger effect = lower value; some inactives read as strong as hits; activity change (mCherry), % (concentration not given with the values); 89,000 tested, 0.01% active;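 active means mCherry past -33% and 40 or more points under the early reporter, replicates agreeing; inconclusive means past -33% without that gap or agreement; tested in A549 cells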;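 further: scaled between vehicle wells and reference inhibitor wells; 23 nL library stock went into each well; one replicate is shown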
Vaccinia stage Venus – also measured in Vaccinia stage; calls as there; activity change (Venus), %; measured here: Venus reporter, other viral stage;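 negative = less Venus signal; first of two replicates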
Active calls of the source: *; u = inconclusive; x = no result given. Only part of the results is shown; count on the stated rates, not on these rows.

SMILES | Vaccinia stage | Vaccinia stage Venus
C[C@H]1CN([C@@H](C)CO)C(=O)Cc2cc(NC(=O)CCN3CCOCC3)ccc2O[C@@H]1CN(C)C(=O)Nc1ccc2c(c1)OCO2 | 4.6 | 5.5
C[C@@H]1CN([C@@H](C)CO)C(=O)c2cc(NC(=O)CCCCCC(=O)Nc3ccccc3N)ccc2O[C@@H]1CN(C)C | 22.7 | 16.1
CNC[C@H]1Oc2ccc(NC(=O)C3CC3)cc2C(=O)N([C@H](C)CO)C[C@H]1C | 6.6 | 6.4
COc1ccccc1S(=O)(=O)N(C)C[C@@H]1Oc2cc(C#CCC3CCCC3)ccc2S(=O)(=O)N([C@@H](C)CO)C[C@@H]1C | -29.7 | -23.0
Cc1ccc(S(=O)(=O)Nc2ccc3c(c2)C(=O)N([C@H](C)CO)C[C@@H](C)[C@H](CN(C)C(=O)Nc2ccc(C(F)(F)F)cc2)OCCCC[C@@H](C)O3)cc1 | -17.4 | -11.1
C[C@H]1CN([C@@H](C)CO)C(=O)c2cccc(NC(=O)Nc3ccc(F)cc3)c2O[C@@H]1CN(C)Cc1ccc2c(c1)OCO2 | -2.8 | -8.8
CN(C)C(=O)c1cccc(-c2ccc3c(c2)[C@@H]2[C@@H](CCN2Cc2nccs2)[C@@H](CO)N3)c1 | -14.5 | -3.2
Cc1ccc(S(=O)(=O)N2CC[C@@H]3[C@H]2c2cc(C#Cc4ccc(F)cc4)ccc2N[C@@H]3CO)cc1 | u | x
COc1ccc(C[C@@H]2CCc3cnnn3COC[C@H](c3ccccc3)NC2=O)cc1 | 3.8 | 0.4
C[C@@H]1CN([C@@H](C)CO)C(=O)c2cc(NC(=O)c3ccncc3)ccc2O[C@H]1CN(C)Cc1ccc(C(F)(F)F)cc1 | -0.7 | -3.6
O=C(C[C@H]1CC[C@H]2[C@@H](COC[C@@H](O)CN2S(=O)(=O)c2cccc(F)c2)O1)Nc1ccc(-c2ccccc2)cc1 | -22.7 | -22.0
Cc1ccc(S(=O)(=O)Nc2cccc3c2O[C@H](CN(C)S(=O)(=O)c2ccccc2)[C@H](C)CN([C@H](C)CO)C3=O)cc1 | 1.6 | -10.6
COCC(=O)N(C)C[C@@H]1Oc2cc(-c3ccccc3)ccc2S(=O)(=O)N([C@@H](C)CO)C[C@H]1C | -0.4 | -1.5
COC(=O)C[C@@H]1C[C@H]2c3cc(NC(=O)C4CCOCC4)ccc3O[C@H]2[C@H](CO)O1 | 13.1 | 17.1
CO[C@@H]1CN(C)C(=O)c2cc(NC(=O)Nc3ccccc3)ccc2OC[C@H](C)N(C(=O)CN(C)C)C[C@@H]1C | -3.9 | -1.3
O=C(C[C@@H]1CC[C@H](NC(=O)C2CC2)[C@@H](CO)O1)NC1CCC1 | -1.7 | 9.2
COCC(=O)NC[C@H]1N[C@H](CO)[C@H]1c1ccc(-c2ccccc2F)cc1 | u | x
C[C@H](CO)N1C[C@H](C)[C@H](CN(C)Cc2ccncc2)Oc2ncc(C#Cc3ccc(C(F)(F)F)cc3)cc2C1=O | -15.5 | 10.7
COc1ccc(NC(=O)Nc2ccc3c(c2)C(=O)N([C@@H](C)CO)C[C@H](C)[C@@H](CN(C)C(=O)Nc2ccc4c(c2)OCO4)OCCCC[C@H](C)O3)cc1 | -1.4 | 0.5
CCC(=O)N(C)C[C@@H]1Oc2cc(Br)ccc2S(=O)(=O)N([C@H](C)CO)C[C@@H]1C | 6.2 | 1.2
O=C(c1cccc(F)c1)N1CCCCN2[C@@H](CO)[C@@H](c3ccc(C#CC4(O)CCCC4)cc3)[C@@H]2C1 | -17.5 | -17.7
C[C@H](CO)N1C[C@H](C)[C@@H](CN(C)C(=O)c2cccnc2)Oc2ncc(-c3ccc(C#N)cc3)cc2C1=O | 24.9 | 17.7
O=S(=O)(c1cccc(F)c1)N1CC[C@H]2[C@H](CO)Nc3ccc(C#Cc4ccccc4F)cc3[C@H]21 | 15.4 | 7.8
COCC#Cc1ccc2c(c1)O[C@@H](CN(C)Cc1ccc(F)cc1)[C@@H](C)CN([C@@H](C)CO)S2(=O)=O | -19.1 | -19.2
CCCC(=O)N1CC2(C1)CN(C(=O)C1CCCC1)[C@@H](CO)c1[nH]c3cc(OC)ccc3c12 | 13.6 | 7.7
CC(C)CC#Cc1ccc2c(c1)O[C@H](CN(C)C(=O)c1ccccc1)[C@H](C)CN([C@H](C)CO)S2(=O)=O | u | x
C[C@@H]1CCCCO[C@H](CN(C)C(=O)CCCN(C)C)[C@@H](C)CN([C@H](C)CO)C(=O)c2cc(NS(=O)(=O)c3cn(C)cn3)ccc2O1 | 12.9 | 7.1
COc1ccccc1C#Cc1ccc([C@@H]2[C@H]3CN(S(C)(=O)=O)CCCCN3[C@H]2CO)cc1 | -13.8 | -32.5
C[C@@H]1CCCCO[C@H](CN(C)C(=O)CCCN(C)C)[C@@H](C)CN([C@H](C)CO)C(=O)c2cc(NC(=O)c3ccccc3)ccc2O1 | 0.6 | 12.3
CO[C@H]1CN(C)C(=O)c2cc(NS(C)(=O)=O)ccc2OC[C@@H](C)N(C(=O)C2CC2)C[C@@H]1C | -2.6 | 1.1
COC(=O)[C@H]1[C@H](CO)[C@H]2Cn3c(ccc(/C=C/c4ccccc4)c3=O)[C@H]2N1C(=O)C1CCCC1 | -9.9 | -3.1
Cc1ccc(S(=O)(=O)N(C)C[C@H]2Oc3ncc(Br)cc3C(=O)N([C@@H](C)CO)C[C@H]2C)cc1 | -22.7 | -18.0
CC(=O)n1cc([C@@H]2C=C(C(=O)NCc3ccccc3)O[C@H](OCCCCO)C2)c2ccccc21 | 3.0 | -2.1
O=C(NCC1CC1)[C@H]1[C@H](CO)[C@H]2Cn3c(ccc(-c4cccnc4)c3=O)[C@@H]1N2C(=O)C1CC1 | 7.8 | 8.9
O=C(Nc1ccccc1Cl)N1C[C@H]2[C@@H](c3ccccc31)[C@@H](CO)N2Cc1ccccc1 | -12.6 | 3.7
COc1ccc2c3c(n(C)c2c1)[C@H](CO)N(Cc1cc(F)ccc1F)CC31CN(C(=O)C2CC2)C1 | 11.2 | 8.6
C[C@@H]1CN([C@@H](C)CO)S(=O)(=O)c2ccc(Br)cc2O[C@H]1CN(C)S(C)(=O)=O | -0.2 | -5.1
COc1ccc(NC(=O)Nc2ccc3c(c2)C(=O)N([C@H](C)CO)C[C@@H](C)[C@H](CN(C)S(=O)(=O)c2ccc(Cl)cc2)OCCCC[C@@H](C)O3)cc1 | 9.2 | 16.2
C[C@@H]1CN([C@H](C)CO)C(=O)c2cc(NC(=O)CCN3CCOCC3)ccc2O[C@H]1CN(C)S(=O)(=O)c1ccccc1 | -1.3 | 5.5
C[C@H](NC(=O)[C@H]1[C@H](CO)[C@H]2Cn3c(ccc(-c4cccc(F)c4)c3=O)[C@H]2N1C)c1ccccc1 | -12.7 | -16.3
COc1cccc(-c2ccc([C@@H]3[C@@H](CO)N4CCCCN(S(=O)(=O)c5cn(C)cn5)C[C@@H]34)cc2)c1 | -1.6 | 2.7
Cc1noc(C)c1NC(=O)Nc1cccc2c1O[C@@H](CN(C)C(=O)Nc1c(C)noc1C)[C@H](C)CN([C@@H](C)CO)C2=O | 13.8 | 6.1
Cc1ccc(S(=O)(=O)N(C)C[C@H]2Oc3c(NS(=O)(=O)c4ccccc4)cccc3C(=O)N([C@H](C)CO)C[C@@H]2C)cc1 | 4.9 | 11.2
CNC[C@@H]1Oc2cc(-c3cccc(C(=O)N(C)C)c3)ccc2S(=O)(=O)N([C@@H](C)CO)C[C@H]1C | 5.2 | 0.9
Cc1cccc(S(=O)(=O)N2CCCCN3[C@H](CO)[C@H](c4ccc(-c5ccccc5)cc4)[C@H]3C2)c1 | -6.5 | 0.4
C[C@H](CO)N1C[C@H](C)[C@@H](CN(C)C(=O)Nc2ccc(C(F)(F)F)cc2)Oc2c(NC(=O)CCCCCC(=O)Nc3ccccc3N)cccc2C1=O | 40.6 | 18.7
C/C=C/c1ccc2c(c1)O[C@@H](CN(C)S(C)(=O)=O)[C@@H](C)CN([C@H](C)CO)S2(=O)=O | -14.2 | -11.0
Cc1cccc(S(=O)(=O)N2[C@@H]3c4ccc(-c5ccccc5)c(=O)n4C[C@H]2[C@H](CO)[C@H]3C(=O)O)c1 | 11.2 | 14.9
C[C@@H]1CN([C@H](C)CO)C(=O)c2cc(C#Cc3ccccc3F)cnc2O[C@@H]1CN(C)S(=O)(=O)c1ccccc1 | u | x
COCC#Cc1ccc2c(c1)O[C@H](CN(C)Cc1ccccc1)[C@@H](C)CN([C@H](C)CO)S2(=O)=O | -18.4 | -13.5

A draw from above in order of molar mass, falling:
SMILES | Vaccinia stage | Vaccinia stage Venus
COc1ccc(NC(=O)Nc2ccc3c(c2)C(=O)N([C@H](C)CO)C[C@@H](C)[C@H](CN(C)S(=O)(=O)c2ccc(Cl)cc2)OCCCC[C@@H](C)O3)cc1 | 9.2 | 16.2
C[C@H](CO)N1C[C@H](C)[C@@H](CN(C)C(=O)Nc2ccc(C(F)(F)F)cc2)Oc2c(NC(=O)CCCCCC(=O)Nc3ccccc3N)cccc2C1=O | 40.6 | 18.7
C[C@@H]1CN([C@H](C)CO)C(=O)c2cc(NC(=O)CCN3CCOCC3)ccc2O[C@H]1CN(C)S(=O)(=O)c1ccccc1 | -1.3 | 5.5
Cc1noc(C)c1NC(=O)Nc1cccc2c1O[C@@H](CN(C)C(=O)Nc1c(C)noc1C)[C@H](C)CN([C@@H](C)CO)C2=O | 13.8 | 6.1
C[C@@H]1CN([C@H](C)CO)C(=O)c2cc(C#Cc3ccccc3F)cnc2O[C@@H]1CN(C)S(=O)(=O)c1ccccc1 | u | x
COc1cccc(-c2ccc([C@@H]3[C@@H](CO)N4CCCCN(S(=O)(=O)c5cn(C)cn5)C[C@@H]34)cc2)c1 | -1.6 | 2.7
COCC#Cc1ccc2c(c1)O[C@H](CN(C)Cc1ccccc1)[C@@H](C)CN([C@H](C)CO)S2(=O)=O | -18.4 | -13.5
C[C@@H]1CN([C@@H](C)CO)S(=O)(=O)c2ccc(Br)cc2O[C@H]1CN(C)S(C)(=O)=O | -0.2 | -5.1
COc1ccc2c3c(n(C)c2c1)[C@H](CO)N(Cc1cc(F)ccc1F)CC31CN(C(=O)C2CC2)C1 | 11.2 | 8.6
Cc1cccc(S(=O)(=O)N2[C@@H]3c4ccc(-c5ccccc5)c(=O)n4C[C@H]2[C@H](CO)[C@H]3C(=O)O)c1 | 11.2 | 14.9
Cc1cccc(S(=O)(=O)N2CCCCN3[C@H](CO)[C@H](c4ccc(-c5ccccc5)cc4)[C@H]3C2)c1 | -6.5 | 0.4
O=C(NCC1CC1)[C@H]1[C@H](CO)[C@H]2Cn3c(ccc(-c4cccnc4)c3=O)[C@@H]1N2C(=O)C1CC1 | 7.8 | 8.9
C/C=C/c1ccc2c(c1)O[C@@H](CN(C)S(C)(=O)=O)[C@@H](C)CN([C@H](C)CO)S2(=O)=O | -14.2 | -11.0
O=C(Nc1ccccc1Cl)N1C[C@H]2[C@@H](c3ccccc31)[C@@H](CO)N2Cc1ccccc1 | -12.6 | 3.7

High-throughput results as filed in PubChem BioAssay.
